rRNA inh HTS: inhibits bacterial ribosomal RNA function over humanized ribosomes | GFP signal change (wild-type ribosome), % (concentration not given with the values) | E. coli WT GFP vs humanized-ribosome RFP mutants, fluorescence, 24 h; stronger effect = lower value; DMSO median 0, no signal -100 | hit rate 1.6% among 350,000;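 active = significant combined selectivity score with lowered wild-type GFP, culture density cut under 30%, mutant RFP and density less affected; inactive = any of these conditions unmet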; also: one replicate is shown; some compounds called inactive have numbers as strong as hits
rRNA inh HTS OD600: also measured in rRNA inh HTS; calls as there; OD600 change, %; measured here: OD600 growth;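 optical density of the mix in the first replicate; 0 = DMSO median and -100 = no signal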
rRNA inh HTS RFP: recorded beside rRNA inh HTS, whose call it bears; RFP signal change, %; measured here: RFP humanized mutant strains;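 first replicate; 0 = DMSO median and -100 = no signal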
An asterisk follows results filed as active; & = joins results of further samples. The list is partial (hit frequency here may not be typical).

SMILES	rRNA inh HTS	rRNA inh HTS OD600	rRNA inh HTS RFP
C[C@H](CO)N1C[C@H](C)[C@H](CN(C)Cc2ccc(C(F)(F)F)cc2)OCCCC[C@H](C)Oc2ccc(NS(C)(=O)=O)cc2C1=O	-2	-5	0.1
CCC(=O)NC[C@@H]1[C@@H](c2ccc(C3=CCCC3)cc2)[C@@H](CO)N1C(=O)C1CC1	2	5	-0.7
COCCNC(=O)C[C@H]1C[C@H]2c3cc(NC(=O)c4cccnc4)ccc3O[C@H]2[C@H](CO)O1	4	16	-2.5
COc1ccc(NC(=O)c2ccc3c(c2)CCN3S(C)(=O)=O)cc1	-4	10	0.7
Cc1noc(C)c1S(=O)(=O)Nc1ccc2c(c1)C(=O)N([C@H](C)CO)C[C@@H](C)[C@H](CN(C)Cc1ccc(C(F)(F)F)cc1)OCCCC[C@@H](C)O2	-3	-15	13
O=C(Nc1ccc(F)cc1)N[C@H]1CC[C@@H](CCNS(=O)(=O)c2cccc(Cl)c2)O[C@@H]1CO	-6	-2	2.3
CC1(C(=O)NCc2ccccc2)CSCC(=O)N1CCCn1ccnc1 (stereo unspecified)	4	11	-0.1
COc1ccc(S(=O)(=O)N(C)C[C@H]2OCCCC[C@@H](C)Oc3ccc(NS(=O)(=O)c4cn(C)cn4)cc3C(=O)N([C@@H](C)CO)C[C@@H]2C)cc1	-4	-1	0.2
Cc1ccc(S(=O)(=O)Nc2ccc3c(c2)C(=O)N([C@H](C)CO)C[C@H](C)[C@H](CN(C)S(=O)(=O)c2ccc(Cl)cc2)OCCCC[C@H](C)O3)cc1	4	9	1.0
CC(C)NC(=O)N(C)C[C@H]1Oc2ccccc2CC(=O)N(C)C[C@@H]1C	-5	-4	-1.1
COc1ccc(NC(=O)Nc2ccc3c(c2)CC(=O)N([C@H](C)CO)C[C@@H](C)[C@@H](CN(C)Cc2ccc4c(c2)OCO4)O3)cc1	-5	-36	34
C[C@@H]1CN([C@@H](C)CO)C(=O)CCCn2cc(nn2)CO[C@H]1CN(C)Cc1ccccc1C(=O)O	-6	-7	-2.7
CCCCCc1c(-c2ccc(F)cc2)ncn1CCc1ccccc1OC	-22	-34	6.7
COc1ccc(S(=O)(=O)N(C)C[C@H]2Oc3c(NC(=O)C4CCOCC4)cccc3C(=O)N([C@@H](C)CO)C[C@H]2C)cc1	-1	1	-0.1
CO[C@@H]1CN(C)C(=O)c2cc(NC(=O)C3CC3)ccc2OC[C@@H](C)NC[C@@H]1C	3	6	0.1
O=C(Cc1ccccc1)N1CC(=O)N2[C@H](C1)[C@@H](c1ccc(-c3cccc(F)c3)cc1)[C@@H]2CO	-57	-72	-8.8
C[C@H](CO)N1C[C@H](C)[C@H](CN(C)C(=O)c2ccccn2)Oc2cc(C#CCC3CCCC3)ccc2S1(=O)=O	0	-30	28
C[C@H](CO)N1C[C@H](C)[C@H](CN(C)Cc2ccc(C(=O)O)cc2)OCCCC[C@H](C)Oc2ccc(NS(=O)(=O)c3cccs3)cc2C1=O	1	6	0.2
C[C@H]1CN([C@@H](C)CO)C(=O)Cc2cc(NC(=O)Nc3cccc4ccccc34)ccc2O[C@@H]1CN(C)Cc1ccc(-c2ccccc2)cc1	7	6	0.1
CCOC(=O)C1(C)CCCCCN1C(=O)c1csnn1 (stereo unspecified)	8	17	-1.8
CC1(C)Cc2cccc(OC(=O)NC3CCCCC3)c2O1	11	3	0.4
COc1cccc(S(=O)(=O)N[C@H]2CC[C@H](CCNC(=O)Nc3cc(F)ccc3F)O[C@@H]2CO)c1	-6	-12	0.8
O=C(C[C@@H]1CC[C@@H]2[C@H](COC[C@H](O)CN2Cc2cccc(C(F)(F)F)c2)O1)NCCc1ccccc1	-5	-21	5.0
C[C@@H]1CN([C@@H](C)CO)C(=O)c2cc(NS(=O)(=O)c3ccccc3)ccc2O[C@@H](C)CCCCO[C@@H]1CN(C)C(=O)C1CCCCC1	-3	-19	0.5
CC(C)C#Cc1ccc([C@@H]2[C@H]3CN(C(=O)Cc4ccccc4)CC(=O)N3[C@H]2CO)cc1	-52	-78	-12
C[C@H]1CN([C@@H](C)CO)S(=O)(=O)c2ccc(Br)cc2O[C@H]1CN(C)C(=O)C1CCC1	-2&1	-8&-2	2.7&2.2
Cc1ccc(S(=O)(=O)Nc2ccc3c(c2)C(=O)N([C@@H](C)CO)C[C@H](C)[C@H](CN(C)C)OCCCC[C@@H](C)O3)cc1	2	-1	-0.7
CN1CCN(C(=O)C[C@@H]2C[C@@H]3c4cc(NC(=O)Nc5ccccc5)ccc4O[C@@H]3[C@@H](CO)O2)CC1	1	-4	-1.1
C[C@H]1CN([C@@H](C)CO)C(=O)c2cccc(NS(=O)(=O)c3ccc(Cl)cc3)c2O[C@H]1CN(C)S(=O)(=O)c1ccccc1	-3	-5	1.1
CCCNC(=O)Nc1ccc2c(c1)OC[C@@H](C)N(CC1CCCC1)C[C@@H](C)[C@H](OC)CN(C)C2=O	-1	-10	-1.1
C[C@@H]1CN([C@@H](C)CO)C(=O)c2cccc(NS(=O)(=O)c3ccc(F)cc3)c2O[C@H]1CN(C)Cc1ccc(Oc2ccccc2)cc1	0	4	0.0
CCC(=O)Nc1ccc2c(c1)C(=O)N(C)C[C@@H](OC)[C@H](C)CN(C(=O)CC)[C@@H](C)CO2	3	3	-3.4
C[C@@H]1CN([C@@H](C)CO)C(=O)c2cccc(NC(=O)c3cnccn3)c2O[C@H]1CN(C)Cc1ccncc1	1	5	-2.2
CO[C@@H](CN(C)S(=O)(=O)c1cccc(Cl)c1)[C@@H](C)CN([C@@H](C)CO)S(=O)(=O)c1cccc(Cl)c1	-9	-48	28
CN(C)C(=O)c1ccc(-c2ccccc2[C@H]2[C@@H](C#N)N(C(=O)C3CC3)[C@H]2CO)cc1	7	3	-0.3
COc1ccc2c3c([nH]c2c1)[C@@H](CO)N(C(=O)C1CCOCC1)CC31CCN(Cc2cccc(F)c2)CC1	2	7	-0.4

Full records from above. Screens in order: rRNA inh HTS | rRNA inh HTS OD600 | rRNA inh HTS RFP
`CC(C)NC(=O)N(C)C[C@H]1Oc2ccccc2CC(=O)N(C)C[C@@H]1C` as listed: -5 | -4 | -1.1
`CCCNC(=O)Nc1ccc2c(c1)OC[C@@H](C)N(CC1CCCC1)C[C@@H](C)[C@H](OC)CN(C)C2=O` as listed: -1 | -10 | -1.1
`COc1ccc(NC(=O)c2ccc3c(c2)CCN3S(C)(=O)=O)cc1` as listed: -4 | 10 | 0.7
`Cc1noc(C)c1S(=O)(=O)Nc1ccc2c(c1)C(=O)N([C@H](C)CO)C[C@@H](C)[C@H](CN(C)Cc1ccc(C(F)(F)F)cc1)OCCCC[C@@H](C)O2` as listed: -3 | -15 | 13
`O=C(Nc1ccc(F)cc1)N[C@H]1CC[C@@H](CCNS(=O)(=O)c2cccc(Cl)c2)O[C@@H]1CO` as listed: -6 | -2 | 2.3

Next part:
SMILES	rRNA inh HTS	rRNA inh HTS OD600	rRNA inh HTS RFP
CN(C)S(=O)(=O)n1cc(/C=C(\NC(=O)c2ccccc2F)C(=O)N2CCCCC2)c2ccccc21	3	15	-3.5
C[C@H]1CN([C@@H](C)CO)C(=O)c2cc(N(C)C)ccc2O[C@@H]1CN(C)Cc1ccc(C(=O)O)cc1	-1	6	-5.1
O=C(c1cccnc1)N1C[C@@H]2[C@H](c3ccccc31)[C@H](CO)N2Cc1ccc2c(c1)OCO2	0	9	-3.2
C/C=C/c1ccc([C@H]2[C@@H](C#N)N(C(=O)c3cccnc3)[C@H]2CO)cc1	-2	6	-3.7
O=C(NCc1ccc(Cl)c(Cl)c1)c1cc(C2CCCCN2C(=O)c2ccccc2)on1 (stereo unspecified)	-4	-6	-1.1
O=C(NCCc1ccccc1)c1ccc(-c2ccc(F)c(F)c2)c2ccoc12	22	16	2.3
COc1ccc(C#Cc2cnc3c(c2)C(=O)N([C@@H](C)CO)C[C@@H](C)[C@H](CN(C)C(=O)Nc2cccc(OC)c2)O3)cc1	-1	-3	-3.6
CCc1nc2ccc(C(=O)NCC3CCCCC3)cn2c1N(C)C(=O)c1cccc(OC)c1	-7	-5	6.1
C[C@H](CO)N1C[C@H](C)[C@H](CN(C)Cc2ccc(C(F)(F)F)cc2)Oc2ccc(NS(=O)(=O)c3cccs3)cc2CC1=O	-2	8	1.2
C[C@@H]1CCCCO[C@@H](CN(C)C)[C@H](C)CN([C@@H](C)CO)C(=O)c2cc(NC(=O)Nc3ccccc3)ccc2O1	2	10	-2.6
COc1ccc(S(=O)(=O)Nc2ccc3c(c2)C(=O)N([C@H](C)CO)C[C@H](C)[C@@H](CN(C)Cc2ccc(C(F)(F)F)cc2)OCCCC[C@H](C)O3)cc1	-2	-16	11
COCCNC(=O)C[C@@H]1CC[C@H]2[C@@H](COC[C@@H](O)CN2Cc2cccc(-c3ccncc3)c2)O1	8	3	0.8

Arranged by formula weight (rising): some entries from above.
SMILES	rRNA inh HTS	rRNA inh HTS OD600	rRNA inh HTS RFP
COCCNC(=O)C[C@@H]1CC[C@H]2[C@@H](COC[C@@H](O)CN2Cc2cccc(-c3ccncc3)c2)O1	8	3	0.8
C[C@@H]1CCCCO[C@@H](CN(C)C)[C@H](C)CN([C@@H](C)CO)C(=O)c2cc(NC(=O)Nc3ccccc3)ccc2O1	2	10	-2.6
C[C@H](CO)N1C[C@H](C)[C@H](CN(C)Cc2ccc(C(F)(F)F)cc2)Oc2ccc(NS(=O)(=O)c3cccs3)cc2CC1=O	-2	8	1.2

The listing continues:
SMILES	rRNA inh HTS	rRNA inh HTS OD600	rRNA inh HTS RFP
O=C(O)C[C@@H]1C[C@@H]2c3cc(NC(=O)c4ccc5c(c4)OCO5)ccc3O[C@@H]2[C@@H](CO)O1	3	3	0.5
CCCC#Cc1ccc([C@H]2[C@@H](C#N)N(C(=O)C3CCCCC3)[C@H]2CO)cc1	-37	-37	-3.4
C[C@@H]1CN([C@@H](C)CO)C(=O)Cc2cc(NC(=O)Cc3cn(C)c4ccccc34)ccc2O[C@H]1CN(C)S(=O)(=O)c1cn(C)cn1	0	-5	-0.5
C[C@H](CO)N1C[C@H](C)[C@H](CN(C)C(=O)C2CCCCC2)Oc2ncc(/C=C/c3ccccc3)cc2C1=O	-5	-28	20
COc1cccc(C#Cc2ccc([C@@H]3[C@@H](CO)N4C(=O)CN(S(=O)(=O)c5ccccc5C)C[C@H]34)cc2)c1	3	12	1.6
CC(=O)c1ccc(Nc2nc(C(N)c3ccccc3)cs2)cc1 (stereo unspecified)	5	4	-0.2
O=C(Cc1cccnc1)N[C@@H]1CC[C@H](CCn2cc(Cc3ccccc3)nn2)O[C@@H]1CO	1&17	5&10	-0.7&0.4
C[C@@H]1CCCCO[C@@H](CN(C)CC2CC2)[C@H](C)CN([C@H](C)CO)C(=O)c2cc(NC(=O)Nc3ccc(C(F)(F)F)cc3)ccc2O1	-6	-40	32
CCCCOCCCNC(=O)C[C@@H]1C[C@@]2(C(=O)OCC)CCCC=C2N(CCc2ccc(OC)c(OC)c2)C1=O	-6	11	-1.9
COCC(=O)Nc1ccc2c(c1)[C@H]1C[C@@H](CC(=O)NCC(F)(F)F)O[C@@H](CO)[C@H]1O2	1	10	-1.5
C[C@H]1CN([C@@H](C)CO)S(=O)(=O)c2ccc(C#CC3CCCC3)cc2O[C@H]1CN(C)C(=O)Nc1cc(F)ccc1F	4	12	-1.6
Oc1ccc(C[C@H]2CNC(=S)N2C[C@H]2CCCN2C[C@H](Cc2ccccc2)N2C[C@H](Cc3ccc(O)cc3)N(CC3CCCCCC3)C2=S)cc1	16	11	11
C[C@@H]1CN([C@H](C)CO)S(=O)(=O)c2ccc(C#CC3CCCCC3)cc2O[C@@H]1CN(C)C(=O)Cc1ccncc1	4	5	5.5
C[C@@H]1CN([C@H](C)CO)C(=O)c2cccc(NC(=O)Nc3ccc(C(F)(F)F)cc3)c2O[C@H]1CN(C)Cc1ccc(C(F)(F)F)cc1	3	-1	-1.3
N#Cc1cccc(-c2ccc3c(c2)[C@H]2[C@H](CCN2C(=O)c2ccncc2)[C@@H](CO)N3)c1	0	-3	-3.9
C[C@H](CO)N1C[C@H](C)[C@@H](CN(C)S(=O)(=O)c2cccs2)OCCCC[C@H](C)Oc2ccc(NC(=O)c3ccncc3)cc2C1=O	-2	0	1.5
C[C@@H]1CN([C@H](C)CO)C(=O)c2cc(NC(=O)Cn3cnnn3)ccc2O[C@H]1CN(C)CC1CCCCC1	2	14	-1.8
O=C(NC1CCC1)[C@@H]1[C@@H](CO)[C@@H]2Cn3c(ccc(-c4ccccc4)c3=O)[C@@H]2N1CC1CC1	-7	-12	-0.6
O=C(O)CSc1c(Cl)c(=O)oc2ccc(Cl)cc12	15	9	4.4
C[C@H](CO)N1C[C@H](C)[C@@H](CN(C)C(=O)Nc2ccc3c(c2)OCO3)Oc2ccc(NC(=O)Cn3cnnn3)cc2CC1=O	-3	9	-2.1
O=C(C[C@@H]1C[C@H]2c3cc(NC(=O)Cc4ccncc4)ccc3O[C@H]2[C@@H](CO)O1)NCc1ccccn1	2	7	-0.2
CCN=C1NC(c2cccc(Cl)c2)C(C(=O)OC)=C(C)N1Cc1ccccc1C(F)(F)F (stereo unspecified)	-24	-48	-4.5
COc1ccc(S(=O)(=O)N(C)C[C@@H]2Oc3ccc(NC(=O)Cc4cn(C)c5ccccc45)cc3CC(=O)N([C@@H](C)CO)C[C@@H]2C)cc1	3	-8	11
